PKA-R1A activ – activates the PKA-R1A holoenzyme complex. AID 504707. activation, % at 11.4 µM. 340,000 tested, 0.083% active. PKA-R1A dissociation, Cy5-IP20 fluorescence polarization; scaled: DMSO 0%, 113 µM cGMP 100%;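 active = percent activation above the mean of all tested compounds plus 3 SD, cut at about 19% in these data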;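 also: higher means more PKAc released from R1A so a rise in polarization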
Pemphigus Ab inh – blocks pemphigus antibody binding to human desmoglein-3; DSG3-coupled beads, scFv-anti-DSG3-GFP binding, flow cytometry; stronger effect = lower value; binding (percent of control), % at 10 µM; 310,000 tested, 0.48% active;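 active = binding more than 3 SD below its plate's average and above zero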;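 also: hits lower antibody fragment binding to DSG3; some compounds called inactive have numbers as strong as hits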
SUMO Mot1 rescue – blocks SUMOylation pathway, rescuing yeast Mot1-301 growth. S. cerevisiae Mot1-301 growth rescue, ATP luminescence, 38.5C; percent above DMSO median, 100 means doubled. growth rescue, % at 18.8 µM. 320,000 tested, 1% active. AID 2716;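 active = every valid replicate shows activation above 250% relative to neutral control wells; inactive = the rest, any valid replicate at or below 250%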;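 also: OY570 slx delta 5 strain wells were the positive control but not used for scaling; some compounds called inactive have numbers as strong as hits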
OPRM1-OPRD1 inv – inverse agonists of human mu-delta opioid receptor heterodimerization; 340,000 tested, 0.21% active; inhibition, % at 9.3 µM; P35372+P41143; cell-based MOR-DOR heterodimer luminescence, inverse agonism; AID 504357; in the data active = inhibition above about 22%, passing the limit was not always enough;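 also: 0% = cells with DMSO and 100% = wells without cells with DMSO; values of inactives mirror those of a sister screen read the other way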
HTR5A ag ctr – counter-screen for OPRM1-OPRD1 agonists: human HTR5A agonism | HTR5A agonist assay, luminescence, cell-based | activation, % at 9.3 µM | 340,000 tested, 0.61% active; in the data active = activation mostly above about 9.5%, no sharp cut-off; inactive = mostly below about 7.6%;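 also: 0% = cells with vehicle only and 100% = reference agonist; strong numbers were not always called active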
Target sequence (P47898 whole entry, looked up): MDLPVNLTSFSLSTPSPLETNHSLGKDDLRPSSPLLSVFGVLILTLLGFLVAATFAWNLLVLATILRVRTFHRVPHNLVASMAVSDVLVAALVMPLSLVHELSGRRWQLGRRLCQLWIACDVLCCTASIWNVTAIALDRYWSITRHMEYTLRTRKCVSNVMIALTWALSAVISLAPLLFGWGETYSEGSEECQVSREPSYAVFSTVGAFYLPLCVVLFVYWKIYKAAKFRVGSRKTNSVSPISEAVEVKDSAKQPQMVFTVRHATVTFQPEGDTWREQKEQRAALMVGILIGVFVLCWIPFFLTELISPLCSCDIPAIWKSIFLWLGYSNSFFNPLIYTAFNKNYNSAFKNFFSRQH
PfHsp90 set2 – growth inhibition of yeast expressing Plasmodium Hsp90; AID 504621; S. cerevisiae expressing PfHsp90, BacTiter-Glo ATP, 48 h; yeast lacking PDR1 and PDR3 efflux regulators; 310,000 tested, 0.32% active; inhibition, % at 9.4 µM;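 active = every replicate shows inhibition above about 80%, whatever the replicate mean, limit read from the data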;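 also: 0% = DMSO neutral controls and 100% = 20 µM radicicol positive controls; yeast relying on Plasmodium falciparum Hsp90 in place of its own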
HTR5A inv ag – inverse agonist of human HTR5A in OPRM1-OPRD1 counter-screen | P47898 | HTR5A cell line, luminescence, inverse agonism | inhibition, % at 9.3 µM | 340,000 tested, 0.083% active; in the data active = inhibition mostly above about 23%, no sharp cut-off; inactive = mostly below about 18%;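 also: 0% = cells with DMSO and 100% = no-cell wells with DMSO; some compounds called inactive have numbers as strong as hits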
OPRM1-OPRD1 ag – agonists of human mu-delta opioid receptor heterodimerization. AID 504326. cells, OPRM1-OPRD1 heterodimerization, luminescence. activation, % at 9.3 µM. 340,000 tested, 0.3% active. P35372+P41143; in the data active = activation above about 18%;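 also: 0% = vehicle-treated cells and 100% = reference agonist; values of inactives mirror those of a sister screen read the other way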
* marks the source's active call; other numbers are inactive results; . = no result given. An excerpt; the hit share may differ from the screen's.

Preview (2 entries):
Codes – A = PKA-R1A activ; B = Pemphigus Ab inh; C = SUMO Mot1 rescue; D = OPRM1-OPRD1 inv; E = HTR5A ag ctr; F = PfHsp90 set2; G = HTR5A inv ag; H = OPRM1-OPRD1 ag
> CCN(CC)CCCN1C(=O)C(O)=C(C(=O)c2cc3cccc(OC)c3o2)C1c1ccncc1 (stereo not drawn)
  A: -1	B: 96	C: 339	D: 0	E: -2	F: .	G: 15	H: -0.1
> CCC(C)NC(=O)C1CCN(S(=O)(=O)c2cccnc2)CC1 (stereo not drawn)
  A: -7	B: .	C: 4	D: 14	E: -9	F: -10	G: 21	H: -3.4

All compounds of this part, repeating the preview:
Codes – A = PKA-R1A activ; B = Pemphigus Ab inh; C = SUMO Mot1 rescue; D = OPRM1-OPRD1 inv; E = HTR5A ag ctr; F = PfHsp90 set2; G = HTR5A inv ag; H = OPRM1-OPRD1 ag
> CCN(CC)CCCN1C(=O)C(O)=C(C(=O)c2cc3cccc(OC)c3o2)C1c1ccncc1 (stereo not drawn)
  A: -1	B: 96	C: 339	D: 0	E: -2	F: .	G: 15	H: -0.1
> CCC(C)NC(=O)C1CCN(S(=O)(=O)c2cccnc2)CC1 (stereo not drawn)
  A: -7	B: .	C: 4	D: 14	E: -9	F: -10	G: 21	H: -3.4
> CCc1ccc(OCCCOc2ccc(C=O)cc2)cc1
  A: -10	B: 97	C: 3	D: -33	E: 2	F: .	G: -14	H: 6.5
> Cc1cccc(NS(=O)(=O)c2ccc(C(=O)N3CCCCCC3)cc2)c1C
  A: -11	B: 104	C: 215	D: 19	E: 0	F: -1	G: -7	H: -4.0
> Cc1ccccc1NC(=O)c1ccc2c(c1)C(=O)N(CC(C)C)C2=O
  A: -1	B: 121	C: -9	D: -1	E: 2	F: 11	G: -8	H: 0.1
> CC(=O)Nc1ccc(CN2CCCC(CO)(Cc3ccccc3C)C2)cc1 (stereo not drawn)
  A: 4	B: .	C: -3	D: -225	E: 0	F: 34	G: -1	H: 49*
> O=[N+]([O-])c1ccc(-c2nc(-c3cccs3)c(-c3cccs3)[nH]2)cc1
  A: -15	B: 102	C: .	D: -39	E: 0	F: -6	G: 8	H: 7.2
> Cn1c(=O)c2c(ncn2CCOc2ccc(Br)cc2)n(C)c1=O
  A: 3	B: .	C: -2	D: 0	E: -2	F: 17	G: -7	H: -0.1
> COc1ccc(OC(=O)CCc2c[nH]c3ccccc23)cc1
  A: 1	B: 87	C: 26	D: -4	E: -2	F: -7	G: 5	H: 0.8
> CCOC(=O)CN1C(=O)N[C@@H](c2cccc(C(F)(F)F)c2)C(C(=O)OC)=C1C
  A: 12	B: 98	C: -15	D: 5	E: -1	F: -1	G: -16	H: -0.9
> Cc1nc(NCC2CCCO2)[nH]c(=O)c1CCC(C)C (stereo not drawn)
  A: -9	B: 107	C: -3	D: 12	E: -1	F: 8	G: 4	H: -2.1
> C=CCn1c(=S)[nH]c2scc(-c3ccco3)c2c1=O
  A: -2	B: 94	C: -6	D: 8	E: 0	F: -31	G: -1	H: -1.6
> COc1ccc(C(=O)Sc2nncc3ccccc23)cc1
  A: 6	B: 99	C: -16	D: 17	E: 2	F: -50	G: -8	H: -3.4
> CCOC(=O)Nc1ccc(Cc2ccncc2)cc1
  A: 0	B: 112	C: -23	D: 20	E: 2	F: .	G: -5	H: -4.2
> Cc1ccc(-c2noc(-c3ccoc3C)n2)cc1
  A: -11	B: 94	C: -10	D: -24	E: -5	F: 13	G: 14	H: 3.3
> CCc1ccc(-n2cccc2/C=C2/C(=N)N3C(=NC2=O)SN=C3S(C)(=O)=O)cc1
  A: -8	B: 90	C: -5	D: 0	E: -3	F: 8	G: 2	H: 0.1
> CCOc1cc(C2C3=C(CC(C)(C)CC3=O)N(C)C3=C2C(=O)CC(C)(C)C3)ccc1O
  A: 9	B: 100	C: -3	D: 2	E: 2	F: -8	G: 10	H: -0.4
> Cc1ccc(CNC(=O)C2CC3Cn4c(nc5cc6ccccc6cc54)C3N2C)o1 (stereo not drawn)
  A: 2	B: 102	C: 7	D: 6	E: 0	F: 8	G: -1	H: -1.1

Whole records from above:
CCc1ccc(-n2cccc2/C=C2/C(=N)N3C(=NC2=O)SN=C3S(C)(=O)=O)cc1 as listed: PKA-R1A activ: -8; Pemphigus Ab inh: 90; SUMO Mot1 rescue: -5; OPRM1-OPRD1 inv: 0; HTR5A ag ctr: -3; PfHsp90 set2: 8; HTR5A inv ag: 2; OPRM1-OPRD1 ag: 0.1
C=CCn1c(=S)[nH]c2scc(-c3ccco3)c2c1=O as listed: PKA-R1A activ: -2; Pemphigus Ab inh: 94; SUMO Mot1 rescue: -6; OPRM1-OPRD1 inv: 8; HTR5A ag ctr: 0; PfHsp90 set2: -31; HTR5A inv ag: -1; OPRM1-OPRD1 ag: -1.6

Random excerpt: two records from the list
Codes – A = PKA-R1A activ; B = Pemphigus Ab inh; C = SUMO Mot1 rescue; D = OPRM1-OPRD1 inv; E = HTR5A ag ctr; F = PfHsp90 set2; G = HTR5A inv ag; H = OPRM1-OPRD1 ag
> Cc1ccccc1NC(=O)c1ccc2c(c1)C(=O)N(CC(C)C)C2=O
  A: -1	B: 121	C: -9	D: -1	E: 2	F: 11	G: -8	H: 0.1
> Cc1ccc(CNC(=O)C2CC3Cn4c(nc5cc6ccccc6cc54)C3N2C)o1 (stereo not drawn)
  A: 2	B: 102	C: 7	D: 6	E: 0	F: 8	G: -1	H: -1.1

Source: PubChem
